Compound activity (PubChem)
HSD17B inh: inhibitors of human HSD17B10 dehydrogenase | 75,000 tested, 7.6% active | Potency, µM (titrated, usually from 57.1 µM), without a hit: at the top dose activity change, negative = inhibition, most hits filed as inhibitors | AID 893 | recombinant HSD17B10, NADH fluorescence kinetic; many of its hits are not listed in these tables | Q99714; active means well fitted inhibition curve with a large enough effect; inconclusive means small, poorly fitted or top-dose-only effect; inactive means no such curve, though single readings can be large or run the other way;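 further: the protocol describes HADH2 (HSD17B10) and not the HSD17B4 of the title; nearly all actives have a fitted effect of over 70% in size; most hits overshoot -100% by far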
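His-tagged E. coli-expressed HADH2 at 20 nM in 100 mM Tris-HCl pH 9.0 with 0.01 % Tween-20, preincubated 15 min with compound at room temperature. Reaction with 1 mM NAD+ and 90 uM beta-hydroxybutyryl coenzyme A; NADH fluorescence (360/450 nm) read kinetically over 4 min, last minus first point.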
* hit, by the source's call; ? = inconclusive; [ ] = dose if it differs, or a comment. On the % scale 0 is the no-effect control and ±100 the full control effect; potency means the concentration at half of the fitted maximal effect. These rows are one share of the data; the hit share may differ from the screen's.

item	Molecule	HSD17B inh
1	CCC1=C(OC(=O)N(CC)CC)N2C(=O)OC(=NCCOC)[C@]2(Cc2ccccc2)[C@H]2C1=CC[C@H]1C(=O)N(CC(=O)OC)C(=O)[C@H]12	2%
2	Cc1ccc(S(=O)(=O)C2(C(=O)O)CCCC2)cc1C	3%
3	COc1ccc(Cc2nnc(SCc3c(C)noc3C)n2C2CCCCC2)cc1OC	0%
4	COc1cccc(CN(CC(=O)NCC2CCCO2)C(=O)CCC(=O)Nc2cc(C)on2)c1 (centres undefined)	10%
5	CCOc1ccc(C(=O)CSc2nnc(N)s2)cc1	-7%
6	Cc1oc(C(C)(C)C)cc1C(=O)Nc1ccc2c(c1)OCCO2	-20%
7	COc1cc(OC)cc(-c2cc3nc(C)c(CCC(=O)NC(C)CCc4ccco4)c(C)n3n2)c1 (centres undefined)	32µM*
8	Cc1ccc2[nH]c(=O)c(CN(Cc3cccs3)Cc3nnnn3Cc3ccccc3)cc2c1	?
9	c1ccc(-c2cccc(N3CCCC4(CCNCC4)C3)c2)cc1	?
10	Cc1ccc(C(=O)CSc2ccccn2)cc1	-26%
11	Cc1nnc(SCCCn2c(N3CCN(c4ccccc4)CC3)nc3c2c(=O)[nH]c(=O)n3C)s1	7%
12	CC(C)C1NC2(C(=O)c3ccccc3C2=O)C2C(=O)N(c3ccc(F)cc3)C(=O)C12 (centres undefined)	-13%
13	Nc1c(-c2ccc(Cl)cc2)nnn1-c1ccccc1	2%
14	CCOC(=O)C1CCN(C(=O)Cc2c(C(=O)O)[nH]c3ccccc23)CC1	?
15	O=c1cc(-c2ccccc2)nc2n1Cc1ccccc1-2	-1%
16	Cc1cc(C)c2c(CN3CCN(C)CC3)cc(=O)oc2c1	-8%
17	CCOC(=O)N1CCC(NC(=O)CSCc2nc(-c3cccc(OC)c3)oc2C)CC1	-23%
18	COc1ccc2[nH]cc(CCNc3ncncc3-c3cccc(C#N)c3)c2c1	19%
19	O=C(NCCN1CCc2ccccc2C1)C1CCN(S(=O)(=O)N2CCCCC2)CC1	6%
20	CCOCCCNC(=O)C1CCN(C(=O)Nc2ccc(Cl)cc2)CC1	13%
21	O=C(CCc1nc(-c2ccccc2)no1)NCc1ccco1	-2%
22	O=c1cc(-c2ccccc2)oc2cc(O)c(O)c(O)c12	2µM*
23	O=C(Nc1cccnc1)c1cc2nc(C3CC3)cc(C(F)(F)F)n2n1	?
24	NS(=O)(=O)c1ccc(NCc2cnc3ccccc3n2)cc1	8%[11.4 µM]
25	COC(=O)C1CCCN1C(=O)c1cccs1 (centres undefined)	14%
26	Cc1cccc(CNc2ncnc3ccc(-c4ccoc4)cc23)c1	25µM*
27	COc1cccc(-n2nnc3c(=O)n(CC(=O)NCC4CCCO4)cnc32)c1 (centres undefined)	?
28	CC(=O)C1=C(N2CCCCC2)CCC1=O	8%
29	O=c1c(CCc2ccccc2)nc2cnc(N3CCOCC3)nc2n1CCc1ccccc1	3.2µM*
30	Cc1ccc(CN2CCN(C(=O)C3CCCO3)CC2)cc1 (centres undefined)	11%
31	O=C(CCNS(=O)(=O)c1ccc(Br)s1)NC1CCCC1	0%
32	COc1ccc(C)cc1NC(=O)CN(c1ccccc1)S(C)(=O)=O	-5%
33	COc1ccc(-c2nc(CS(=O)CC(=O)N3CCc4ccccc4C3)c(C)o2)cc1 (centres undefined)	-25%
34	O=C(NCCC1=CCCCC1)C1CCN(S(=O)(=O)c2cccs2)CC1	-6%
35	Cc1nc(SCC(=O)NCC2CCCO2)c2oc3ccccc3c2n1 (centres undefined)	-3%
36	O=C(Nn1cnnc1)c1cc2cc(Br)ccc2oc1=O	1%
37	CCCSc1nnc(Sc2nnnn2-c2ccccc2)s1	-13%
38	COC(=O)N1CC(C)N(C(=O)OC)CC1C (centres undefined)	-1%
39	CN1CCN(S(=O)(=O)c2ccc(-c3ccccc3)cc2)CC1	-18%
40	COc1ccccc1N/C(=N/c1nc(C)cc(C)n1)NC(C)=O	0%
41	CSc1nnc2c3ccccc3n(CCc3ccccc3)c2n1	-27%
42	CCOC(=O)O[C@@H](C)OC(=O)[C@@H]1N2C(=O)[C@@H](NC(=O)[C@@H](N)c3ccccc3)[C@H]2SC1(C)C	-4%[25.6 µM]
43	CCN(CCNC(=O)C1CCN(S(=O)(=O)c2cccc3nsnc23)CC1)c1ccccc1	5%
44	O=C(NC1CCN(Cc2ccccc2)C1)c1ccc(Cc2nc3ccccc3[nH]2)cc1 (centres undefined)	9%
45	COc1ccc(CN(C2CCCC2)S(=O)(=O)c2ccc(-n3cnnn3)cc2)cc1	0%
46	COc1ccc(OC)c(S(=O)(=O)NCc2cn3ccsc3n2)c1	10%
47	Cc1cc(C)cc(NC(=O)CSc2nnc(CNC(=O)c3cccs3)o2)c1	6%
48	C=CCn1c(SCC(=O)N(CC)CC)nc(O)cc1=O	8%
49	CCCCNC(=O)OCCNC(=O)NC	13%
50	O=C(Nc1ccc(Br)cc1F)C1CCN(c2nnc(-n3cccc3)s2)CC1	2%
51	N#CC1=C(SCC(=O)NC2CC2)NC(=O)C(C#N)C12CCCCC2 (centres undefined)	-8%
52	CCN1CCCC1Cn1c(-c2ccccc2)nc2c(NC3CCCCC3)nc(C)nc21 (centres undefined)	?
53	C/C(CC1(O)C(=O)N(C)c2ccccc21)=N\O (centres undefined)	3%
54	Nc1nc2nccc(-c3ccc(Cl)cc3)n2n1	32µM*
55	COc1ccc2c(c1)CCc1c(C(=O)NCCCn3ccnc3)noc1-2	?
56	COc1cc(CN2CCN(S(=O)(=O)c3ccc(F)cc3)CC2)cc(OC)c1OC	-1%
57	Nc1c2c(nc3ccn(Cc4ccccc4)c(=O)c13)CCC2	25µM*
58	O=C(COC(=O)CCCc1c[nH]c2ccccc12)Nc1ccc2c(c1)OCO2	-7%
59	CCOc1cc(NC(=O)c2ccco2)c(OCC)cc1NC(=O)Cc1cccc(OC)c1	?
60	COCCn1c(=O)c(C)nc2cncnc21	?

Going on with the list:
item	Molecule	HSD17B inh
61	O=C(c1cccc(F)c1)N1CCC2(CC1)CCN(c1ccccc1)CC2	1%
62	COc1cccc(C2C(C#N)=C(N)OC3=C2C(=O)CC(c2ccco2)C3)c1OCc1ccc(F)cc1 (centres undefined)	-18%
63	Cc1ccc(N2CCn3c2nc2c3c(=O)n(CCc3ccccc3)c(=O)n2C)cc1	4%
64	CCOc1ccc(-n2cc(C(=O)N3CCCCCC3)c3cc(OC)c(OC)cc3c2=O)cc1	-3%
65	COc1ccc(CNC(=O)C2CC(=O)N(c3ccc(OCC(=O)N4C(C)CCCC4C)cc3)C2)cc1 (centres undefined)	3%
66	CCC(NS(=O)(=O)c1ccc(C)cc1)C(=O)Nc1ccc(NC(C)=O)cc1 (centres undefined)	0%
67	CCOc1cc(N2CCOCC2)c(OCC)cc1NC(=O)COC(=O)CCc1c[nH]c2ccccc12	-1%
68	COc1ccc(NC(=O)CSC2CCCCC2)cc1	16%
69	CCC(C)NC(=O)CSc1nc2ccc(N3CCOCC3)cc2c(=O)n1CCc1ccccc1 (centres undefined)	3%
70	CCCn1c(SCC(=O)N2CCc3ccccc32)nnc1-c1ccncc1	0%
71	COc1ccc(C(=O)Cn2nnc(-c3ccc(N4CCOCC4)cc3)n2)cc1OC	-3%
72	COc1cc(SC)ccc1C(=O)NC1CCCCC1	-5%
73	CCOC(=O)c1nnn(-c2nonc2-c2ccccc2)c1C	7%
74	Cc1cc(C)n2c(Br)c(CSc3nc4ccccc4o3)nc2n1	32µM*
75	O=C(Nc1cccc(F)c1)N1CC[C@@]2(CCCN(C(=O)c3cccc(F)c3)C2)C1	13%

In a second layout: 4 of the compounds above
61	O=C(c1cccc(F)c1)N1CCC2(CC1)CCN(c1ccccc1)CC2
  HSD17B inh = 1%

68	COc1ccc(NC(=O)CSC2CCCCC2)cc1
  HSD17B inh = 16%

70	CCCn1c(SCC(=O)N2CCc3ccccc32)nnc1-c1ccncc1
  HSD17B inh = 0%

62	COc1cccc(C2C(C#N)=C(N)OC3=C2C(=O)CC(c2ccco2)C3)c1OCc1ccc(F)cc1 (centres undefined)
  HSD17B inh = -18%

Returning to the listing, starting 3 compounds before the break.
item	Molecule	HSD17B inh
73	CCOC(=O)c1nnn(-c2nonc2-c2ccccc2)c1C	7%
74	Cc1cc(C)n2c(Br)c(CSc3nc4ccccc4o3)nc2n1	32µM*
75	O=C(Nc1cccc(F)c1)N1CC[C@@]2(CCCN(C(=O)c3cccc(F)c3)C2)C1	13%
76	CC(NC(=O)Nc1ccccc1O)(C(F)(F)F)C(F)(F)F	-5%
77	CCOC(=O)C1CCCN(C(=O)c2ccc(CS(=O)(=O)c3ccc(Br)cc3)o2)C1 (centres undefined)	-1%
78	CCCC(=O)N(Cc1cc2cccc(C)c2[nH]c1=O)c1ccccc1OC	?
79	Cc1cccc(N2CCN(CC(=O)NCC3CCCCC3)CC2)c1C	-3%
80	CCCN(CCC)c1ncnc2c1cnn2-c1ccc(OC)cc1	?
81	CCOC(=O)Cc1csc(NC(=O)CSc2ncnc3c2cnn3-c2ccc(OC)cc2)n1	-188%
82	O=C(CSc1nnc(-c2ccccc2)o1)NC1CCCCC1	-3%
83	Cc1ccccc1Cn1c(=O)c2c(nc3n2CCN3Cc2ccco2)n(C)c1=O	6%
84	COC(=O)CSc1nnc(SCc2ccc(OC)cc2)s1	8%
85	CCOC(=O)C1=C(N)Oc2cc(O)ccc2C1c1cccnc1 (centres undefined)	4%
86	CN(C)c1cccc(C(=O)NCC2CCCO2)c1 (centres undefined)	?
87	CCn1cc(C(=O)NC2CCCCC2C)c(=O)c2ccc(C)nc21 (centres undefined)	0%
88	O=C(CN1CCOCC1)NCc1ccccc1	-20%
89	Cn1c(=O)c2c(nc(CN3CCN(c4ccccc4)CC3)n2Cc2ccccc2F)n(C)c1=O	4%
90	Cc1cnc(C(=O)Nc2nnc(C)s2)cn1	-3%
91	CC(NS(=O)(=O)c1ccccc1)C(c1cccs1)N1CCN(C)CC1 (centres undefined)	2%
92	CS(=O)(=O)N(CC(=O)NCC1CCCO1)c1ccc(Cl)c(Cl)c1 (centres undefined)	7%
93	CC(C)CCSc1nc2c(c(=O)[nH]c(=O)n2C)n1CCCc1ccccc1	0%
94	O=C(CSc1nnc2scc(-c3ccc(Cl)cc3)n12)NCc1ccc2c(c1)OCO2	?
95	COC(=O)c1ccc(Oc2nc(NC(C)C)nc(SC)n2)cc1	6%
96	O=C(c1cc(C(F)(F)F)cc(C(F)(F)F)c1)N1CCC2(CC1)CN(Cc1ccncc1)C2	-2%
97	CNC(=O)CN1C(=O)CSc2nc(C)cc(C)c21	3%
98	N#CCSc1nnc(COc2ccc3ccccc3c2)o1	-4%
99	C/C(=N\S(=O)(=O)c1ccc(C)cc1)N1CCN(S(=O)(=O)c2ccccc2)C1	-8%
100	CC(=O)Nc1cccc(OCC(=O)NS(=O)(=O)c2ccc(Cl)cc2)c1	?
101	CN(C)S(=O)(=O)c1ccc2c(c1)/C(=C/c1cc3c([nH]1)CCCC3)C(=O)N2	-8%
102	Cc1cc(=O)n2[nH]c(-c3ccc(Cl)cc3)cc2n1	?
103	CC(N)=O	4%
104	CC(NC(=O)c1cccnc1)C(c1cccs1)N1CCOCC1 (centres undefined)	1%
105	COC(=O)[C@@]1(Cc2ccc(OC)cc2)[C@H]2c3cc(C(=O)N4CCCC4)n(Cc4cc(F)c(F)c(F)c4)c3C[C@H]2CN1C(=O)c1ccccc1	4%
106	Cc1c(NC(=O)CSc2nnc(-c3cccc(Cl)c3)o2)c(=O)n(-c2ccccc2)n1C	-8%
107	COCC(C)OC(=O)C(C#N)c1nc2ccccc2nc1N1CCN(Cc2ccccc2)CC1 (centres undefined)	1%
108	O=C1NCC2=C1C(c1ccc(Br)cc1)Nc1ccccc1N2 (centres undefined)	4%
109	COc1ccc(-c2nnc(CSc3nc4ccccc4c(=O)n3CC3CCCO3)o2)cc1OC (centres undefined)	13%
110	COc1ccc(CC(=O)Nc2c3c(nn2-c2cccc(C)c2C)CS(=O)C3)cc1OC (centres undefined)	9%
111	COc1ccc(-c2nnc3ccc(SCC(=O)NCc4ccco4)nn23)cc1	-16%
112	O=C(c1c(F)cccc1F)N1CCN(c2cccc(C(F)(F)F)c2)CC1	0%
113	O=C(O)CCSc1nnc(-c2ccccc2)n1-c1ccccc1	11%
114	COC(=O)/C=C(\C)NC(=O)c1cccs1	4%
115	Cc1oc2nc(SCC(=O)NCc3cccnc3)nc(N)c2c1C	4%
116	O=C(NCc1nnc2n1CCCCC2)c1ccc(Cl)cc1Cl	4%
117	O=C(CCC(=O)N1CCN(S(=O)(=O)c2ccccc2)CC1)NC1CCCc2ccccc21 (centres undefined)	11%
118	Cc1c2cn[nH]c(=O)c2c(C)n1Cc1ccc(F)cc1	-2%
119	O=C(CCn1c(SCC(=O)NCc2ccco2)nc2ccccc2c1=O)NCCc1ccccc1	1%
120	COc1ccc(S(=O)(=O)Cc2ccc(C(=O)N3CCN(Cc4ccccc4)CC3)o2)cc1	1%
121	COC(=O)[C@@]1(Cc2ccccc2)[C@H]2c3cc(C(=O)N4CCCC4)n(Cc4ccc(C)o4)c3C[C@H]2CN1C(=O)c1ccccc1	12%
122	N=c1sccn1CC(=O)Nc1ccc(S(=O)(=O)N2CCOCC2)cc1	19%
123	N[C@@H](Cn1ccc(=O)n(Cc2ccccc2C(=O)O)c1=O)C(=O)O	?
124	CCCNC(=O)CN(c1ccc(F)c(Cl)c1)S(C)(=O)=O	-14%
125	Cc1ccccc1N1CCN(S(=O)(=O)C[C@@]23CC[C@H](C[C@H]2NC(=O)[C@@H](N)CCS(C)(=O)=O)C3(C)C)CC1	8%
126	CCOc1ccc(Cl)cc1CSc1n[nH]c(CC)n1	-5%
